RecA splice inh: Mtb RecA intein splicing inhibitors, primary screen, biochemical, fluorescence, HTS | cell-free RecA intein splicing | AID 2221, 2009 | inhibition, %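 (about 9 µM by stock and volumes)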 | 0.75% of 290,000 active; in the data active = inhibition above about 30%;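 also: 0% = vehicle wells and 100% = reference inhibitor control wells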
Target sequence (P9WHJ3 whole entry, looked up, canonical isoform): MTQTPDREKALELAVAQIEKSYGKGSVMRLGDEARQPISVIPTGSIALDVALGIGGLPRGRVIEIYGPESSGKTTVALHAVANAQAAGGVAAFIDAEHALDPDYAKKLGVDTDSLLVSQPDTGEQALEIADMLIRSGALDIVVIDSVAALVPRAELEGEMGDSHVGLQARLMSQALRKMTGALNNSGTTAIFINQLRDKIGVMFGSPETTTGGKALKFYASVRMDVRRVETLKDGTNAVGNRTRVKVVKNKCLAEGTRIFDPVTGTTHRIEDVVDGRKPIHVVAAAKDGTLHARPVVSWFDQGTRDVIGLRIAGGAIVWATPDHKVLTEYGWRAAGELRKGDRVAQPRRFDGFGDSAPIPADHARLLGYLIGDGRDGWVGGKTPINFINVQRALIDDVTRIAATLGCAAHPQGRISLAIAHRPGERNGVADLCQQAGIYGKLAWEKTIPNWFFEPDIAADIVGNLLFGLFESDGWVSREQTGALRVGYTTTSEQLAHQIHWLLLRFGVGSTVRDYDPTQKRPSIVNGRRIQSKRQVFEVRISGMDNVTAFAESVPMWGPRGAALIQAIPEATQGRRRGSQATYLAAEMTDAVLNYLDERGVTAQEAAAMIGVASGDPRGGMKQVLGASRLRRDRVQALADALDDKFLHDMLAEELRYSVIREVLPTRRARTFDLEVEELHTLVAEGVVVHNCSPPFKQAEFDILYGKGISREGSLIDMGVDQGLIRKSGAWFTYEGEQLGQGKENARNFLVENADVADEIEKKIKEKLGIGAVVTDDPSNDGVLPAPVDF
Arbovirus anti: antivirals against arbovirus infection, primary screen, cell-based, full library, 10K replicate subset | AID 1251, 2008 | inhibition, % at 10 µM | arbovirus infection cell-based antiviral screen | 0.37% of 200,000 active;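 active = inhibition from about 30%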;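 also: bluetongue infection of BSR cells; cell survival read as ATP light after 72 h; 0% = infected wells without compound and 100% = uninfected wells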
Mtb H37Rv: M. tuberculosis H37Rv growth inhibitors, H37Rv strain (AID 1626) | 0.95% of 220,000 active | inhibition, % at 10 µM; hits with a dose series show IC50 in µM | M. tuberculosis H37Rv growth inhibition; higher % means a stronger effect;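 active = confirmed in a dose series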;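 also: bacteria incubated seven days before Alamar blue readout; 0% = bacteria only wells and 100% = bacteria with antibiotic wells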
YopH PTP inh: YopH tyrosine phosphatase inhibitors, primary screen, biochemical, fluorescence Ex485/Em525. YopH tyrosine phosphatase [Yersinia enterocolitica]. 0.16% of 140,000 active. inhibition, %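 (about 10 µM by stock and volumes)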;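 active = inhibition of 50% or more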;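 also: controls were vehicle for no effect and minimum signal wells for full effect; inactives centre near -20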
Mtb bLac sens: beta-lactam sensitization of Mtb H37Rv, H37Rv | inhibition, % at 25 µM | M. tuberculosis H37Rv growth with meropenem, percent inhibition; hits of this screen are not shown here | AID 434955, 2010 | 0.27% of 330,000 active;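 active = about 74% or more and at least 40 points above the plate without the antibiotic, then above 30% in a dose series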;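 also: growth measured after seven days incubation then overnight dye step; 0% = bacteria only wells and 100% = bacteria with antibiotic; twin plates without the antibiotic show which effects depend on it; some results filed as inactive read as strong as hits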
Arbovirus anti repeat: also measured in Arbovirus anti; calls as there; inhibition, %; measured here: 10K subset replicate screen; many hits read low in the repeat;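 first of two repeat runs on a subset; 0% = infected and 100% = uninfected wells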
An asterisk follows results filed as active; nt = not tested or not shown. Not all compounds are listed; count on the stated rates, not on these rows.

SMILES	RecA splice inh	Arbovirus anti	Mtb H37Rv	YopH PTP inh	Mtb bLac sens	others
Cc1c(NC(=O)Nc2ccc(Cl)c(Cl)c2)c(=O)n(-c2ccccc2)n1C	nt	14.5	-5.9%	-34.7	-3.7
CCOc1ccc(S(=O)(=O)NCCSc2ccccc2)cc1	4.9	-2.2	4.4%	-27.9	12.7
FC(F)(F)/C(=N\P(=S)(N1CCOCC1)N1CCOCC1)N1CCOCC1	1.6	3.8	-5.0%	-55.9	1.3	Arbovirus anti repeat=-2.1
COc1ccc(/C=C2\SC(=O)N(CCNC(=O)CN3C(=O)NC4(CCCC4)C3=O)C2=O)cc1	5.9	nt	nt	nt	4.2
Cc1cc(NS(=O)(=O)c2c(C(=O)N3CCOCC3)c(C)n(C)c2C)ccc1Br	-1.9	nt	nt	nt	-7.7
CC1CC(C)(C)N(C(=O)CN2C(=O)CCC2=O)c2ccccc21 (configuration not stated)	-0.5	nt	nt	nt	-2.5
CC12CN3CC(c4ccccc4)(CN(C1)C31CCCCC1)C2=O	-0.2	-0.8	-2.4%	-14.1	-15.7
Cc1c(NC(=O)c2cc3c(=O)n4ccccc4nc3s2)c(=O)n(-c2ccccc2)n1C	-1.5	nt	-6.7%	nt	18.0
O=C1c2ccccc2NC(c2ccc(F)cc2)N1Cc1ccco1 (configuration not stated)	1.5	2.5	-3.0%	-29.8	-3.9
Cc1ccc(S(=O)(=O)Nc2ncccn2)cc1	-5.1	nt	nt	nt	0.5
O=C(N/N=C/c1cccc(Br)c1)c1ccc(Cn2cc(Br)cn2)o1	1.8	2.1	2.9%	-7.5	nt
O=C(NCC1CCCO1)c1ccc2c(c1)N(Cc1ccccc1)C(=O)CS2 (configuration not stated)	0.2	nt	nt	nt	5.6
CC12CCC(C(=O)Nc3ccc4c(c3)OCCO4)(OC1=O)C2(C)C (configuration not stated)	-2.5	-1.2	-12.4%	-1.3	-0.2	Arbovirus anti repeat=1.2
COc1cc(C(=O)Nc2c(C(=O)O)[nH]c3ccccc23)cc(OC)c1OC	-3.2	nt	nt	nt	0.6
CCN(Cc1ccccc1)Cc1c(C)[nH]c2c(C)c(C)ccc2c1=O	1.4	6.5	nt	-23.0	-4.6
FC(F)(F)c1nc2ccccc2nc1N/N=C\c1ccccc1	-4.6	0.5	nt	-20.7	-4.8
COc1ccc(C2NC(=O)NC(c3ccccc3)=C2c2nc3ccccc3s2)cc1 (configuration not stated)	-1.9	-15.3	61.2%	-19.9	nt
C/C(NC(=O)c1ccccc1)=C1/C(=O)CC2C1C2(C)C (configuration not stated)	2.5	-1.0	10.1%	-1.9	43.7
COc1ccccc1N1CCN(C(=O)c2oc3ccc(Br)cc3c2C)CC1	15.6	-2.9	0.0%	-25.7	6.0
C/C(=N\NC(=O)Cn1c(-c2ccccn2)nc2ccccc21)c1ccccc1	3.8	-8.5	0.8%	-18.6	-4.6
Nc1nc(SCC(=O)Nc2ccc([N+](=O)[O-])cc2)[nH]c(=O)c1NC(=O)c1ccc(Br)cc1	-5.9	nt	nt	nt	-2.6
CCOCCCNC(=O)C(c1ccccc1)N(Cc1ccc2c(c1)OCO2)C(=O)c1ccccc1O (configuration not stated)	0.3	2.8	2.0%	nt	-1.2
CC(OC(=O)CCN=C1NS(=O)(=O)c2ccccc21)C(=O)Nc1ccccc1F (configuration not stated)	-2.9	nt	nt	nt	-3.2
CN(C(=O)Nc1ccc(Cl)cc1Cl)C1CCCC1	1.1	2.4	-0.2%	nt	-0.5
COc1ccc(-n2nc(C(=O)Nc3ccc4c(c3)OCO4)c3c4ccccc4n(C)c3c2=O)cc1	0.3	nt	4.1%	-8.0	-8.1
COCCN(C(=O)Cn1nnc2ccccc21)C(C(=O)NC1CCCC1)c1cccc(OC)c1OC (configuration not stated)	-2.3	4.2	-3.4%	-25.1	1.0
CCOc1ccccc1N1CC(C(=O)Nc2ccccc2CC)CC1=O (configuration not stated)	-0.1	nt	nt	nt	-9.3
CN1C=CC=C/C1=C(\C#N)c1nc2ccccc2[nH]1	0.8	4.6	-0.4%	-20.9	2.2
COC(=O)c1ccc(N2CCN(C)CC2)c(NC(=O)c2cccnc2)c1	4.9	4.8	0.2%	nt	-5.2
Cc1ccc(C(=O)OCC(=O)Nc2ccc3[nH]c(=O)[nH]c3c2)o1	-0.6	nt	nt	nt	-9.7
COc1ccc(C2=CC(=O)C=CC2=O)cc1	30.2	nt	2.4%	nt	nt
CC(C)C[C@H]1CN=C(Nc2ccccc2)N1CC1CCCC1	-1.2	nt	nt	nt	-9.6
CN1CCc2c(sc3c2c(=O)n(-c2ccc(Cl)cc2)c2nncn32)C1	nt	-3.4	-8.2%	-42.3	-3.0	Arbovirus anti repeat=0.8
COc1ccc2nc(NC(=O)CSc3nc4cccnc4n3C)sc2c1	-1.5	0.8	2.4%	-2.9	46.8
CCOC(=O)NC(C(F)(F)F)(C(F)(F)F)P(=O)(c1ccccc1)c1ccccc1	-1.8	-0.3	1.9%	0.7	-5.3	Arbovirus anti repeat=-1.5
CCCCN(CCCC)S(=O)(=O)c1ccc(C(=O)Nc2nnc(CSC)o2)cc1	3.0	-23.9	-8.8%	-6.9	69.0
Cc1ccc(NC(=O)COC(=O)/C=C/c2ccco2)cc1S(=O)(=O)N(C)C	-0.7	13.9	-0.2%	19.9	6.4
Cc1ccc(-n2ncc3c(=O)[nH]c(SC(C)C)nc32)cc1	nt	20.6	14.5%	-17.4	3.0	Arbovirus anti repeat=-0.5
COc1ccc(CC(=O)NNC(=O)c2c(-c3ccccc3Cl)noc2C)cc1OC	-2.1	nt	-10.0%	nt	3.0
Cc1cccc2nc(C(F)(F)F)nc(=O)n12	-2.1	-1.7	-12.2%	-46.2	-6.9
COC(=O)C1(Cc2ccccc2)NC(c2ccc(F)cc2)C2C(=O)N(C)C(=O)C21 (configuration not stated)	nt	2.5	-0.9%	0.5	-19.6
Cc1ccc(O)c(-c2cc(C(F)(F)C(F)F)[nH]n2)c1	-2.5	34.3*	3.0%	-13.2	43.1	Arbovirus anti repeat=10.3*
COc1cccc(CN2CC(C(=O)N3CCOCC3)CCC2=O)c1 (configuration not stated)	1.3	nt	nt	nt	-3.1
CCc1nc(N2CCN(C(=O)c3ccco3)CC2)c2c3c(sc2n1)CCCC3	15.4	-2.2	4.6%	3.8	23.1
COc1ccc(S(=O)(=O)N(C)CC(=O)Nc2ccc3c(c2)OCCO3)cc1OC	-0.9	-7.6	-3.6%	-12.4	-12.5
COc1ccc(/C=C2/SC(=S)N(CCC(=O)N3CCN(C)CC3)C2=O)cc1	3.8	nt	nt	nt	1.9
Cc1ccc(S(=O)(=O)N2CCOCC2)cc1C(=O)N1CCN(S(=O)(=O)c2cccs2)CC1	1.0	nt	-7.6%	nt	-7.2
O=C(Cc1ccccc1[N+](=O)[O-])Nc1cccc(S(=O)(=O)NC2=NCCCCC2)c1	-1.9	nt	nt	nt	3.8
CCOC(=O)CC1C(=O)NCCN1S(=O)(=O)c1ccc(F)cc1 (configuration not stated)	-1.1	1.5	0.3%	nt	1.3
CC1(C)NC(=O)N(CC(O)CN(c2ccccc2)S(=O)(=O)c2ccccc2[N+](=O)[O-])C1=O (configuration not stated)	0.2	nt	nt	nt	-4.3

(further entries)
SMILES	RecA splice inh	Arbovirus anti	Mtb H37Rv	YopH PTP inh	Mtb bLac sens	others
COc1ccc(C(=O)Nc2c(N)nc(SCC(=O)Nc3ccc(NC(C)=O)cc3)[nH]c2=O)cc1	-1.8	nt	nt	nt	6.2
COc1ccc(C(=O)Oc2c(CN3CCOCC3)cc(Cl)c3cccnc23)cc1	0.5	-13.7	8.9%	-15.5	94.3
CC(=O)c1ccc(Cc2ccccc2)cc1	-0.6	-18.5	2.9%	nt	4.4
Cc1ccc(C(=O)N2CCn3c(C)ccc3C2C)cc1 (configuration not stated)	nt	1.6	-8.5%	nt	-8.2
CC1CCCC(NC(=O)c2ccncc2)C1C (configuration not stated)	0.4	nt	nt	nt	-4.2
CCO[C@@H]1OC(C(=O)N2CCN(C)CC2)=C[C@H](C(C)(C)C)[C@H]1CCCO	-1.1	1.9	-6.5%	nt	-1.6
O=C(NNS(=O)(=O)c1ccccc1[N+](=O)[O-])c1cccc([N+](=O)[O-])c1	4.7	7.9	-8.0%	-23.8	6.8
CN(C)S(=O)(=O)c1cccc(NC(=O)COC(=O)COc2ccc(Br)cc2)c1	3.9	nt	-0.7%	nt	-5.7
Cc1noc(C)c1C(=O)N1CCCC(N2CCN(c3cccc(C(F)(F)F)c3)CC2)C1 (configuration not stated)	-0.6	nt	nt	nt	-4.0
CCC(=O)c1ccc(OCC(=O)Nc2nn3cnnc3s2)cc1	-1.2	1.9	-4.8%	-39.9	7.3	Arbovirus anti repeat=9.1
CCOC(=O)N1CCC(NS(=O)(=O)c2cc3c(cc2Cl)NC(=O)CO3)CC1	3.3	-3.8	-6.5%	-11.4	-6.3
Cc1ccc(C(=O)COC(=O)C(C)N2C(=O)C3C4C=CC(C4)C3C2=O)cc1 (configuration not stated)	5.2	7.9	4.6%	-1.7	-0.7
COC(=O)c1ccc(NC(=O)CN2C(=O)CCC2=O)cc1	-2.2	17.5	-3.4%	-26.4	-7.3
COc1cc(/C=C/c2nc3ccccc3s2)cc(OC)c1O	-13.6	9.4	61.8%	nt	70.2
CCCc1nc2ccccc2c(C(=O)OCC(=O)NCc2ccco2)c1CC	3.6	5.1	4.6%	-9.6	8.1
N#Cc1c2n(c(=S)n(-c3ccc(OC(F)F)cc3)c1=O)CCCCC2	4.7	5.4	-2.0%	nt	-0.7
CCNC(=O)CCS(=O)(=O)c1ccc2ccccc2c1	2.5	2.1	-16.5%	-25.1	-11.3
O=C(O)CCC(=O)NN1C(=O)c2ccccc2NC1c1ccc(F)cc1 (configuration not stated)	-3.8	nt	0.7%	nt	-4.8
Cn1c(SCC2CCCO2)nnc1-c1cccc([N+](=O)[O-])c1 (configuration not stated)	-3.4	3.7	16.9%	nt	5.2
O=C(NC1CCCCCCC1)c1cccs1	-0.1	nt	nt	nt	-0.9
CN(CC(=O)Nc1c(Cl)cccc1Cl)C(=O)CC1Sc2ccccc2NC1=O (configuration not stated)	1.1	nt	nt	nt	-7.3
O=C(NCC1CCCO1)/C(=C\c1ccco1)NC(=O)c1ccc(Cl)cc1 (configuration not stated)	-0.5	-4.5	-4.0%	nt	6.8
CCOC(=O)C1(Cc2ccc(OC)cc2)CCN(C(=O)c2cc3ccccc3[nH]2)CC1	5.2	1.6	16.8%	nt	0.3

Compounds shown so far with an NH in an aromatic ring:
SMILES	RecA splice inh	Arbovirus anti	Mtb H37Rv	YopH PTP inh	Mtb bLac sens	others
COc1cc(C(=O)Nc2c(C(=O)O)[nH]c3ccccc23)cc(OC)c1OC	-3.2	nt	nt	nt	0.6
CCN(Cc1ccccc1)Cc1c(C)[nH]c2c(C)c(C)ccc2c1=O	1.4	6.5	nt	-23.0	-4.6
Nc1nc(SCC(=O)Nc2ccc([N+](=O)[O-])cc2)[nH]c(=O)c1NC(=O)c1ccc(Br)cc1	-5.9	nt	nt	nt	-2.6
CN1C=CC=C/C1=C(\C#N)c1nc2ccccc2[nH]1	0.8	4.6	-0.4%	-20.9	2.2
Cc1ccc(C(=O)OCC(=O)Nc2ccc3[nH]c(=O)[nH]c3c2)o1	-0.6	nt	nt	nt	-9.7
Cc1ccc(-n2ncc3c(=O)[nH]c(SC(C)C)nc32)cc1	nt	20.6	14.5%	-17.4	3.0	Arbovirus anti repeat=-0.5
Cc1ccc(O)c(-c2cc(C(F)(F)C(F)F)[nH]n2)c1	-2.5	34.3*	3.0%	-13.2	43.1	Arbovirus anti repeat=10.3*
COc1ccc(C(=O)Nc2c(N)nc(SCC(=O)Nc3ccc(NC(C)=O)cc3)[nH]c2=O)cc1	-1.8	nt	nt	nt	6.2
CCOC(=O)C1(Cc2ccc(OC)cc2)CCN(C(=O)c2cc3ccccc3[nH]2)CC1	5.2	1.6	16.8%	nt	0.3

Screening data: PubChem, several laboratories
